# BJeLR viability = kills HRASV12-expressing BJeLR cells; actives 0.17% (n = 300,000); inhibition, % (no concentration beside the values); AID 1554; BJeLR (HRASV12) viability, CellTiter-Glo ATP luminescence, 48 h; reference of the scale not given here;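 active = replicate mean above 50%; inconclusive = above 50% but judged a plate artefact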;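 note: 50 nL library stock added to about 25 µL; numbers are from one replicate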
# PrP UTR inh = suppresses PrP 5' UTR mRNA reporter expression; cell-based PrP 5' UTR mRNA reporter, plate reader; inhibition, % (concentration not given with the values); actives 0.35% (n = 340,000);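 active = every replicate at 50% or more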;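 note: 0 = median of the neutral control wells; tested in H4 reporter cells; numbers are from one replicate; inactives centre near -14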
# Mtb hypoxia inh = inhibitors of hypoxia-regulated fluorescent reporter in Mycobacterium tuberculosis | AID 1159583 | actives 0.1% (n = 300,000) | fluorescence inhibition, % (concentration not given with the values) | M. tuberculosis hypoxia-regulated fluorescent reporter, fluorescence;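 active = 35 to 45% if threefold the growth effect, above 45% if 1.5-fold the growth effect; inactive = the rest, general growth blockers included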;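 note: wells of about 50 µL received 100 nL stock; 0% = vehicle wells and 100% = reference inhibitor wells; whole bacteria with a GFP reporter of the hypoxia response; strong numbers were not always called active; many hits fall short of the cut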
# Autofluor counter = counter-screen for toxin protease inhibitors: compound fluorescence. compound autofluorescence counterscreen, microsphere flow cytometry; hits give high values. fluorescence intensity (concentration not given with the values). actives 3.1% (n = 360,000). AID 624483;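 active = at least 3 SD above the mean of all compounds, about 16000 in these data; inconclusive = too few beads counted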;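 note: 100 nL of 1 mM stock went into each well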
# Sa ugtP lethal = growth inhibition of S. aureus ugtP deletion strain; growth inhibition, % (concentration not given with the values); actives 0.54% (n = 330,000); S. aureus RN4220 ugtP deletion, OD600 growth, 16 h; some inactives read as strong as hits; AID 1259309;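 active = z-score under -3 and OD600 up to 0.15 on both plates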;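 note: plate controls were untreated wells for no effect and antibiotic for full effect; wells of about 80 µL received 100 nL stock; the first replicate is given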
# Sa RN4220 lethal = kills Staphylococcus aureus RN4220 | S. aureus RN4220 growth, OD600, 16 h | AID 1259311 | inhibition, % (concentration not given with the values) | actives 0.33% (n = 330,000);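 active = z-score of -3 or lower and OD600 up to 0.18 on both plates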;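 note: plate controls were untreated cells for no effect and reference antibiotic for full effect; stock transfer was 100 nL into about 80 µL; one replicate is shown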
# Mtb hypoxia inh growth = also measured in Mtb hypoxia inh; calls as there; growth inhibition, %; measured here: M. tuberculosis growth (absorbance);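 0% = vehicle and 100% = reference antibiotic; read after six days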
# The depositor's hits bear a star; ? = inconclusive; . = not tested or not shown; & = joins results of further samples.
SMILES,BJeLR viability,PrP UTR inh,Mtb hypoxia inh,Mtb hypoxia inh growth,Autofluor counter,Sa ugtP lethal,Sa RN4220 lethal
COc1ccc(CCNC(=O)Cn2c(=O)n(-c3cc(F)ccc3F)c(=O)c3sccc32)cc1OC,4,-30,6,7,4506,5,2.7
CCN(CC(=O)Nc1c(F)cccc1F)C(=O)CN(C)S(=O)(=O)c1ccc(F)cc1,0,10,.,.,5208,.,.
Nc1nonc1-n1nnc(C(=O)NN=Cc2ccccc2Cl)c1-c1ccc2c(c1)OCO2,.,.,1,-5,.,8,25
CCCn1nnc(NC(=O)c2ccc(OC)cc2)n1,-4,-56,.,.,4079,8,1.9
CCCCCCC(=O)NC(Nc1ccc(S(N)(=O)=O)cc1)C(Cl)(Cl)Cl (centres undefined),3,-5,5,7,2957,-18,-5.9
CC1CC2(CC(C)(C(=O)CSc3n[nH]c(-c4ccccc4Cl)n3)OC2=O)C(=O)O1 (centres undefined),-2,-7,0,1,3925,0,-0.3
Cc1ccccc1N(CC(=O)N1CCN(c2ccccc2)CC1)S(C)(=O)=O,5,-18,3,4,3555,9,1.3
O=C1CCC([N+](=O)[O-])C(c2ccccc2F)N1 (centres undefined),0,-1,-11,-3,3634,-5,-1.2
O=C1CCN(CCCc2ccccc2)CCN1[C@H](CO)Cc1ccccc1,5,-4,.,.,3568,.,.
COCCNC(=O)CS(=O)Cc1nc(-c2ccc(Cl)cc2)oc1C (centres undefined),-5,-17,3,1,5535,14,11
Cc1cccc2sc(NNC(=O)c3ccc(S(=O)(=O)N4CCc5ccccc5C4)cc3)nc12,16,8,4,11,4477,-37,-8.2
O=S(=O)(c1ccccc1)n1ccc2ccccc21,6,-10,.,.,4295,4,5.6
Cc1ccc(-n2c(C)cc(C(=O)COC(=O)c3ccc[nH]c3=O)c2C)cc1C,-7,-27,.,.,2009,-8,10
CCn1ncc(/C=N/NC(=O)c2cc(Cl)ccc2OC)c1C,-2,-16,.,.,2585,.,.
COc1ccc(C2C(C#N)=C(N)OC3=C2C(=O)CC(C)(C)C3)cc1Cn1cc([N+](=O)[O-])cn1 (centres undefined),-10,-122,8,14,1982,5,1.4
CCOC(=O)COc1ccc(S(=O)(=O)NCCC2=CCCCC2)cc1,-2,4,4,1,10664,8,4.5
N#Cc1ccc(CNc2cnccn2)cc1,-4,-14,-1,8,10719,1,2.2
Cc1cc(C(=O)NN=Cc2ccco2)n[nH]1,.,.,-5,-3,.,-2,1.9
Brc1ccc(C=NNc2ncnc3c2cnn3Cc2ccccc2)cc1,.,.,10,2,.,-23,-12
O=C1NN=C(c2ccc(Br)cc2)CC1c1ccc(Cl)cc1 (centres undefined),.,4,-1,1,3634,-7,0.5
CCCc1cc(=O)oc2cc(OC(C)C(=O)NCC3CCC(C(=O)O)CC3)c(Cl)cc12 (centres undefined),-8,-13,.,.,5570,-2,-0.7
Cc1cc(NC(=O)CCCN2C(=O)/C(=C\c3cccs3)SC2=S)no1,0,-27,12,14,9942,4,3.2
Cc1nc2c3cc(F)ccc3n(Cc3ccccc3F)c2s1,-7,-10,10,9,1945,-9,-11
CCOC(=O)N1CCN(CC(O)COc2ccccc2[N+](=O)[O-])CC1 (centres undefined),0,-28,0,8,3903,-1,3.9
Cc1nn(CC(=O)c2ccccc2)c(=O)c2nn(-c3ccccc3F)c(C)c12,1,6,11,9,3349,6,6.5
N#CCCn1cc(C(=O)N2CCCCC2)c(-c2cccc([N+](=O)[O-])c2)n1,6,-25,3,8,3944,1,0.1
Cc1sc2nc(SCC(=O)Nc3ccc(S(=O)(=O)NCCCC(=O)O)cc3)[nH]c(=O)c2c1C,11,-19,-3,7,2258,-2,-1.0
O=C(NCc1ccco1)C(Cc1ccccc1)NS(=O)(=O)c1cccc2nsnc12 (centres undefined),-9,-12,2,3,3394,14,9.0
CC(=O)Nc1ccc(C=NNc2ccc(S(=O)(=O)Nc3ccccc3C(=O)O)cc2[N+](=O)[O-])cc1,.,-5,14,-4,2966,10,1.6
CCCCCc1ccc(-c2cn(Cc3ccc4ccccc4c3)nn2)cc1,-14,-11,3,6,3854,8,-0.8
CC(=NNc1ccccc1C(=O)O)c1cccs1,.,.,17,8,.,-6,5.4
COC(=O)C(C)N1C(=O)S/C(=C/c2cc(C)n(-c3ccccn3)c2C)C1=O (centres undefined),-4,-111,.,.,2704,.,.
CCOc1ccc(N=CNc2ccc(OCC)cc2)cc1,3,-37,1,-4,4307,9,1.0
CCSc1nnc(NC(=O)CN2C(=O)NC3(CCCC3)C2=O)s1,.,.,15,5,?,7,6.9
COc1ccc(COC(=O)C2CCN(S(=O)(=O)c3cccs3)CC2)cc1,-6,-13,3,-4,6166,9,3.5
O=C(COC(=O)CNC(=O)c1sc2ccccc2c1Cl)Nc1cc(Cl)cc(Cl)c1,-10,-13,19,6,2729,-13,5.9
C[C@@H]1CCC[C@]2(O[C@H](CCO)C[C@H](O)[C@H]2O)O1,-9,3,.,.,2995,.,.
COc1ccc(C)cc1Nc1n[n+](-c2ccccc2)c(-c2ccc(C(=O)O)cc2)s1,-6,-19,.,.,3037,.,.
O=C(COc1ccc2ccccc2c1Br)Nc1ccncc1,15,-22,6,6,5712,-3,-0.3
C[C@H]1CN([C@@H](C)CO)C(=O)Cc2cc(NC(=O)C3CC3)ccc2O[C@H]1CN(C)Cc1ccc(C(=O)O)cc1,.,-13,4,0,3815,-1,-3.0
CCCNC(=O)COC(=O)/C=C/c1cccc(F)c1,4,-96,-5,-1,4668,6,3.2
CC(=O)c1ccccc1NC(=O)COC(=O)/C=C/c1cccs1,-6,-8,2,6,7244,-2,6.3
COc1cccc(C(=O)CN(C(=O)c2ccc(Cl)cc2Cl)N2C(=O)c3ccccc3C2=O)c1,-1,-20,5,-1,11206,1,-1.2
Cc1nc2ccccc2nc(C)c1=NOCc1ccc(Cl)cc1Cl,13,-8,5,8,2746,18,13
CC(C)CCN(C(=O)c1csnn1)C(C(=O)NC1CCCC1)c1ccccc1 (centres undefined),-15,-10,-2,-4,3597,0,0.6
O=Cc1c(NCc2ccccc2)c2ccccc2[nH]c1=O,0,-21,0,4,3867,4,2.3
CC(Oc1ccccc1Br)C(=O)N1CCc2ccccc21 (centres undefined),7,-29,10,5,2916,5,10
CCN(CC)c1ccc(C(=O)NNC(=O)CNC(=O)c2ccco2)cc1,.,-25,5,5,6339,-1,1.2
COc1ccc(CNC(=O)C(C)c2ccc([N+](=O)[O-])cc2)cc1 (centres undefined),-3,-14,5,13,2570,6,1.4
O=C(NC(=S)Nc1ccc2[nH]c(=O)[nH]c2c1)c1ccccc1F,0,-10,-1,-3,6605,5,4.4
CC(C)N1C(=O)CCC1C(=O)NCc1cccs1 (centres undefined),3,-19,14,3,4314,3,4.1
COC(=O)c1ccc(C)c(NC(=O)CCc2cc(OC)c(OC)c(OC)c2)c1,15,-92,13,7,2714,9,2.1
Cn1ncc(C#N)c1NC(=O)c1cc(-c2ccccc2Cl)on1,0,-6,.,.,4769,-8,2.2
O=C(O)c1cnn2c1NC(c1cccs1)CC2C(F)(F)F (centres undefined),-8,-15,.,.,2157,-3,-3.0
CCc1ccc(C(=O)COC(=O)CNC(=O)COc2ccccc2)cc1,21,-10,4,5,2001,16,4.3
O=c1[nH]cnc2sc(-c3ccccc3)cc12,1,-20,-8,-18,10790,-12,-0.3
O=C(CN1C(=O)c2ccccc2S1(=O)=O)c1ccc2c(c1)OCCO2,-5,91*,5,2,.,7,-1.7
Cc1cc(C(=O)N2CCCC(C(=O)c3cccc4ccccc34)C2)nc(C)n1 (centres undefined),-2,-21,7,15,3702,3,2.8
Cc1nnn(C23CC4CC(CC(C4)C2)C3)n1,19,-5,7,9,9815,9,3.4
O=C(C1=CC(c2coc3ccccc3c2=O)CC(OCCCCO)O1)N1CCN(Cc2ccc3c(c2)OCO3)CC1 (centres undefined),.,.,0&9,4&2,.,9&-3,4.3&6.8

# Next section
SMILES,BJeLR viability,PrP UTR inh,Mtb hypoxia inh,Mtb hypoxia inh growth,Autofluor counter,Sa ugtP lethal,Sa RN4220 lethal
CCOc1ccccc1C(C(=O)NC1CCCC1)N(C(=O)c1csnn1)C1CC1 (centres undefined),-6,-19,-3,-6,6757,-5,4.2
COc1ccc(C(=Cc2cc(OC)c(OC)cc2[N+](=O)[O-])C(=O)O)cc1,.,-32,5,15,3786,5,3.3
NNC(=O)Cn1c(COc2ccc(Cl)cc2)nc2ccccc21,-8,-36,.,.,8609,.,.
O=C(NC1CCCC1)c1ccc(Cn2c(=O)[nH]c3ccsc3c2=O)cc1,22,-2,8,13,3566,0,4.7
Cc1oc2cc3oc(=O)c(CCC(=O)NCCCN4CCCC4=O)c(C)c3cc2c1C,-2,-6,.,.,6279,3,2.4
COc1ccc(CNc2nc(C)c([N+](=O)[O-])c(C)c2C#N)cc1,-24,-20,-9,9,2168,-3,-1.3
O=c1[nH]c2cccnc2n1-c1cccc([N+](=O)[O-])c1,7,.,1,-3,.,-3,1.0
CCc1nn2c(N)c(/C=C3\C=Nc4ccccc43)c(=O)nc2s1,0&-14,3,-4&4,-1&4,10446,-17&-7,1.5&7.3
CCN(CC)C(=O)[C@H]1C[C@H](CC(=O)NC(C)(C)C)C(=O)N2CCc3c([nH]c4cc(-c5ccco5)ccc34)[C@]12C,.,-11,-9,2,2964,6,-7.3
O=C(O)c1ccc(Cl)c(NCc2cccnc2)c1,3,-12,.,.,3916,.,.
COc1ccc(OC)c(C(=O)c2oc3ccccc3c2NC(C)=O)c1,-6,-22,9,4,15829,-2,1.9
Fc1ccc(CN2CCN(c3ncnc4scc(-c5ccccc5)c34)CC2)cc1,-7,-17,-17,1,3598,-4,0.7
CCCNC(=S)N(Cc1cc2cc(C)ccc2n2nnnc12)CC(C)(C)CN(C)C,-5,-19,17,7,4306,14,4.6
O=C(COC(=O)c1c(F)cccc1F)NCCNC(=O)COC(=O)c1c(F)cccc1F,-8,-33,8,10,5443,11,0.2
O=C(N/N=C/c1cc2c3c(c1O)CCCN3CCC2)c1ccccc1O,53*,33,.,.,1927,.,.
COc1ccc(/C(N)=N/OC(=O)c2ccc([N+](=O)[O-])c(C)c2)cc1OC,2,-35,12,0,2215,5,13
O=C(O)c1cc(-c2ccco2)nc2ccc(Br)cc12,-3&-8,0&-15,-2,1,2383&9954,-6,20
N=C1c2ccccc2CN1c1cccc([N+](=O)[O-])c1,8,-5,6,2,4251,5,6.1
c1ccc(Cc2noc(CN3CCN(CCOc4ccccc4)CC3)n2)cc1,1,-21,7,2,2252,9,5.1
COc1cc2[nH]cc(C(=O)NCc3ccccc3)c(=O)c2cc1OC,1,-5,-11,-9,3753,6,8.3
CCn1cc(CNC(=O)c2ccc3nc(Cc4ccccc4F)oc3c2)cn1,15,-46,18,7,5689,11,2.1
CCC1(c2ccccc2)NC(=O)N(CC(=O)Nc2cc(S(=O)(=O)N3CCCCC3)ccc2OC(C)C)C1=O (centres undefined),7,3,-8,-9,5630,2,1.5
CCN1CCN(c2ccc(S(=O)(=O)N3CCCCC3)cc2NC(=O)c2cccc(C(F)(F)F)c2)CC1,-10,-18,1,-6,4549,0,8.1
CN(C)S(=O)(=O)N1CCN(C(=O)N2CCOCC2)CC1,-10,-60,6,7,5585,-2,3.4
C[C@H](CO)N1C[C@H](C)[C@@H](CN(C)Cc2ccc(C(=O)O)cc2)Oc2c(NS(=O)(=O)c3ccccc3)cccc2C1=O,.,-17,2,5,3474,-4,-8.1
COc1cc(C2CC(c3cccs3)=NN2C(=O)CCl)ccc1OC(F)F (centres undefined),96*,-4,.,.,5554,.,.
Cn1c(Nc2cccc(Cl)c2)nc2ccccc21,12,-31,0,8,3920,4,-3.3
NNC(=O)c1ccc(CSc2n[nH]c(=O)[nH]c2=O)cc1,3,-9,2,2,3685,-1,3.2

# Part of the list above with just Sa RN4220 lethal and Sa ugtP lethal:
structure	Sa RN4220 lethal	Sa ugtP lethal
CN(C)S(=O)(=O)N1CCN(C(=O)N2CCOCC2)CC1	3.4	-2
C[C@H](CO)N1C[C@H](C)[C@@H](CN(C)Cc2ccc(C(=O)O)cc2)Oc2c(NS(=O)(=O)c3ccccc3)cccc2C1=O	-8.1	-4

# Screening data: PubChem BioAssay, several laboratories
